# High-throughput results: PubChem BioAssay, Johns Hopkins Ion Channel Center
# KCNQ2 pot – potentiators of rat KCNQ2 potassium channel; CHO-K1 KCNQ2, FluxOR thallium flux fluorescence; hits give high values; B-score at 10 µM; 310,000 tested, 0.54% active; AID 2239, 2010;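 active = fluorescence ratio B-score at least 3 SD of library B-scores, with initial fluorescence B-score within 3 SD, cut at about 5.3 in these data; same plate scores as AID 2156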;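 note: B-score of peak minus minimum over baseline fluorescence ratio after K+ and Tl+ stimulus; positive B-score means potentiation of KCNQ2 with more thallium influx and brighter signal; only the inactives scoring about 0 or higher are listed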
# Target sequence (O88943 whole entry, looked up): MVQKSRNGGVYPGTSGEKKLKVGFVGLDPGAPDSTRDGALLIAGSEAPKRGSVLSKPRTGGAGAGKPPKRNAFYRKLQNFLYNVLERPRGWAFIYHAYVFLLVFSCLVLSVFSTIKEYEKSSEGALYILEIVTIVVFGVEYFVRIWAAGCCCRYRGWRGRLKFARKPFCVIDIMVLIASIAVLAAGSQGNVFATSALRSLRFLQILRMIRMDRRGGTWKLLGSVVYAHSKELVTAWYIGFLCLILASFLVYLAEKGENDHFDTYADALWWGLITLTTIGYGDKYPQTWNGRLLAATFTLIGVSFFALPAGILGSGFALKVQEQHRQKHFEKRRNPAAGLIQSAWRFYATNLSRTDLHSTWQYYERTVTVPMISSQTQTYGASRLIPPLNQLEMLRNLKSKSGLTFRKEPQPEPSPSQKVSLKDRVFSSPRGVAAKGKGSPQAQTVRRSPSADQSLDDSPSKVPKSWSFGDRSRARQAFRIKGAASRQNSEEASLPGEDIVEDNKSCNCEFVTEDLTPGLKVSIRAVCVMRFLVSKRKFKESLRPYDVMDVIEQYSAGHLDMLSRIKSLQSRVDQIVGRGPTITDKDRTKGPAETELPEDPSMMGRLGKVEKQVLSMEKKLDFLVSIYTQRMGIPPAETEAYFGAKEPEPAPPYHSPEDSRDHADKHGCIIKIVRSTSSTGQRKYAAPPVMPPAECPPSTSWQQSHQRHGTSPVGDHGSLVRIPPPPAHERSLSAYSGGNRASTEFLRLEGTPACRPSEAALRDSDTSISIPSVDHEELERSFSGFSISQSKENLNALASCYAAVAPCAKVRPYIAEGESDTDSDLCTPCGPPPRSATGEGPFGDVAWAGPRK
# KCNQ2 pot baseline – second read-out of KCNQ2 pot, no call of its own (marks repeat the call); B-score; compound at 10 µM; measured here: initial fluorescence intensity artifact check;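 brightness before thallium and not channel activity; 0 = typical well and far values either way flag optical interference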
# Numbers without * were called inactive.
SMILES,KCNQ2 pot,KCNQ2 pot baseline
COc1cc(/C=N/Nc2nn3cnnc3c3ccccc23)cc(OC)c1OC,0.11,-2
CC(=O)N(Cc1ccc2c(c1)OCO2)C1CC(=O)N(CCc2ccccc2)C1=O (centres undefined),0.73,0.08
Cc1nc2cc(Cl)c(Cl)cc2n1CCCO,0.34,-1.2
COC(=O)c1sccc1NC(=O)NC1CCCCC1,0.78,-0.63
COc1cc(O)c(C(CC(=O)N2CCOCC2)c2ccc(N(C)C)cc2)c(OC)c1 (centres undefined),0.1,0.62
C=CCn1c(O)c2ccc(C(=O)N=NC(=O)c3ccc(F)cc3)cc2c1O,0.48,-3.4
COc1ccc(C(=O)NCCCN(C)CCCNC(=O)c2ccc(OC)cc2)cc1,0.53,-0.14
N#CCCn1cc(CNC2CCC(O)CC2)c2ccccc21 (centres undefined),0.19,-0.2
O=C(NNc1nc(Nc2ccccc2)nc(N2CCOCC2)n1)Nc1ccc(Cl)cc1,2.5,-0.27
Cc1cccc(NC(=O)c2ccc3nsnc3c2)c1C,0.74,1.8
COc1cc2c(cc1OC)C1C(C(=O)Nc3ccccc3N3CCN(C)CC3)c3ccccc3C(=O)N1CC2 (centres undefined),0.45,0.09
CSC1=NC(NCCCO)c2c(sc3c2CC(C)(C)OC3)N1 (centres undefined),0.21,0.31
Cc1nnc(NC(=O)c2ccncc2)s1,0.07,-1.2
COC(=O)C1=C(O)/C(=C\c2sccc2C)N=C1C,0.56,1.3
CCN(CC)C(=O)N1CCN(S(=O)(=O)c2ccc(C)cc2)CC1,0.61,0.19
CC(=O)N1CCN(c2ccc(NC(=S)NC(=O)/C=C/c3ccccc3)cc2)CC1,0.65,-1.2
COc1ccc(C(=O)O/N=C(\N)c2ccccn2)cc1,1.8,0.43
CCCCn1c(=O)cc(O)c2ccccc21,1.8,-0.71
Cc1ccc(C(=O)CSc2nc3cc(S(=O)(=O)N4CCOCC4)ccc3o2)cc1,0.21,0.02
Cc1cc(NS(=O)(=O)c2ccc(NC(=O)CN3C(=O)c4ccccc4C3=O)cc2)nc(C)n1,0.36,0.08
Cc1ccccc1CSc1nn2c(=O)c(C)nnc2s1,0.39,0.94
Cc1ccc(/C=N/NC(=O)c2nnn(-c3nonc3N)c2CN(C)c2ccccc2)s1,1.8,-0.44
CCC(C)(C)NC(=O)CN(C(=O)CCC(=O)Nc1cc(C)ccn1)c1ccc2c(c1)OCO2,0.06,-0.74
COc1ccccc1NC(=O)Oc1cccc(OC(=O)c2ccccc2)c1,0.03,0.08
Cc1cc(C(F)F)n2ncc(C(=O)NCc3ccccc3F)c2n1,0.56,-0.01
# Next records:
SMILES,KCNQ2 pot,KCNQ2 pot baseline
CCCc1ccccc1OCCNS(=O)(=O)c1cc2c(cc1C)OCC(=O)N2,2.2,-0.35
CCOc1ccc(CNC(=O)CCS(=O)(=O)c2ccc3c(c2)oc(=O)n3C)cc1,0.48,-1.1
CCOC(=O)c1cc(-c2csc(N/N=C/c3ccccc3Cl)n2)on1,0.8,-0.35
OC(CCc1ccncc1)COc1ccccc1 (centres undefined),1.5,-0.14
CC(C)(C)c1ccc(OCC(=O)N/N=C/C2CC=CCC2)cc1 (centres undefined),1.7,-0.57
O=C(O)CCC1c2cc3c4cc2OC2Oc5cc6c(cc51)C(CCC(=O)O)c1cc5c7cc1OC(O6)c1cc6cc(c1)Oc1cc(cc(C(=O)O)c1)Oc1cc8cc(c1)C(Oc1cc(c(cc1C5CCC(=O)O)C3CCC(=O)O)OC(O4)c1cc(cc(c1)Oc1cc(cc(C(=O)O)c1)O8)Oc1cc(cc(C(=O)O)c1)Oc1cc(cc2c1)Oc1cc(cc(C(=O)O)c1)O6)O7 (centres undefined),1.3,-1.8
Cc1c(OCC(=O)NCC(O)c2ccccc2)ccc2c3c(c(=O)oc12)CCC3 (centres undefined),0.55,0.02
Cc1ccc(NC(=O)c2cc(NC(=O)CCC(=O)O)ccc2N2CCCCC2)cc1,2.5,0.2
CS(=O)(=O)N1CCN(c2ccc([N+](=O)[O-])cc2C(F)(F)F)CC1,1.7,-0.32
C[C@]12C=CC(=O)C=C1CC[C@@H]1[C@@H]2[C@@H](O)C[C@@]2(C)[C@H]1CC[C@]2(O)C(=O)CO,1.6,-0.02
Cc1cccc(N2CCN(C(=O)Cn3cnc4c3c(=O)n(C)c(=O)n4C)CC2)c1C,0.16,0.82
CN(CC(=O)Nc1ccc(N2CCOCC2)cc1)C(=O)CC(c1ccccc1)c1ccccc1,0.38,0.76
Cc1ccc(F)c(NC(=S)Nc2cccc3ccccc23)c1,0.57,-0.46
CC1=C(C(N)=O)C(c2ccncc2)n2nc(-c3ccccc3Cl)nc2N1 (centres undefined),0.04,-0.9
CCN(CC)c1ccc(NC(=O)c2ccc(Br)o2)c(C)c1,1.6,-0.91
CCOc1ccccc1N(CC(=O)NCC1CCCO1)C(=O)CCC(=O)Nc1ccccn1 (centres undefined),0.03,-0.87
CC(=O)Nc1cccc(OCCCNC(=O)c2cccc3ccccc23)c1,1.3,-0.43
COc1ccc(C2CC(=O)C(C=NCCN3CCN(C(C)=O)CC3)=C(O)C2)cc1 (centres undefined),0.02,1.9
Nc1ccc(S(=O)(=O)NC(=O)c2ccccc2)cc1,0.29,0.19
O=[N+]([O-])c1ccc2cn(-c3ccccc3)nc2c1,0.94,0.1
CCCC(=O)Nc1ccc(Cl)c(NC(=O)c2ccco2)c1,0.03,-0.01
CCCNC(=O)c1ccc(C2SCC(=O)N2Cc2ccccc2)cc1 (centres undefined),1.2,-0.78
COc1ccc(NC(=O)c2cc3ccccc3cc2OC)cc1OC,1.1,0.08
COc1cc2c(cc1OC)CN(C(=O)CSc1nc3[nH]ncc3c(=O)n1-c1ccccc1)CC2,0.65,2.4
Cc1ccc(N2C(=O)CSC2c2c(F)cccc2Cl)cc1 (centres undefined),0.94,-0.38
# Following part:
SMILES,KCNQ2 pot,KCNQ2 pot baseline
COc1ccccc1-c1coc2c(CN3CCCCC3C)c(O)ccc2c1=O (centres undefined),0.09,0.03
COc1cccc(CN2CCN(c3ncccn3)CC2)c1,0.11,-0.75
CS(=O)(=O)c1ccccc1-c1nnc(NC(=O)COc2ccc(Cl)cc2)o1,0.07,-1
COc1ccc(C(=O)Cc2cc(OC)c(OC)cc2C(=O)c2ccccc2F)cc1OC,0.67,-0.54
Cc1nn(C)c(Oc2cccc(C(F)(F)F)c2)c1C=O,0.55,0
Cc1sc2nc(-c3ccc(Br)cc3)oc(=O)c2c1C,0.17,0.51
CC(=O)/C(=N\Nc1cccc(Cl)c1)Sc1nnc(-c2ccccc2)n1-c1ccccc1,0.72,-0.27
CS(=O)(=O)N1CCC(C(=O)Nc2ccccc2Br)CC1,0.7,-1.5
Cc1ccc(C(=O)c2cc3c(cc2N)OCCO3)cc1,0.12,-0.05
CC1(O)C(=O)C=C2C=C(c3ccsc3)OC=C2C1=O (centres undefined),0.14,2.8
CCCC(C)C(=O)Nc1nnc(CCc2ccccc2)s1 (centres undefined),1.1,-0.27
CN(C)c1ccc(CNc2nc3ccccc3s2)cc1,1.1,-0.33
Cc1ccc(-n2ncc3c(=O)n(CC(=O)Nc4cccc(Cl)c4)cnc32)cc1C,0.3,-0.03
CCOc1ccccc1/C=N/NC(=O)c1nnn(-c2nonc2N)c1CN1CCCCCC1,0.57,1.4
O=C(NCCCc1ccccc1)c1ccc(F)cc1,1.1,-1.1
Cc1cccc(CCNC(=O)CC2C(=O)NCCN2Cc2ccc(F)c(F)c2)n1 (centres undefined),1.2,-0.57
CCOc1ccc(CNC(=O)CCS(=O)(=O)Cc2cccc(Cl)c2)cc1OC,1.4,-1.4
Cc1ccc(-n2nc3c(=S)[nH]nc(C)c3c2C)cc1,0.42,-0.31
Cc1nc(SC(C)C(=O)NC2CCCCC2C)c2c(C)c(C)sc2n1 (centres undefined),0.02,1.2
O=C(NCc1ccc(Cl)cc1)c1ccc(-n2cccn2)nc1,0.28,0.06
COc1ccc2[nH]c(=O)c(C(c3nnnn3CC3CCCO3)N3CCc4ccccc4C3)cc2c1 (centres undefined),0.3,-1.3
COc1ccc(C(=O)NC(=S)Nc2ccc(S(=O)(=O)Nc3cc(OC)nc(OC)n3)cc2)cc1,2.3,-1.2
COC(=O)CCC(=O)OC1(C)C(=O)C=C2C=C(C3CC3)N(CCCOC(C)C)C=C2C1=O (centres undefined),0.2,1.1
CC(C)C(NC(=O)C1CCCCC1)C(=O)NCc1ccccn1 (centres undefined),1.4,-0.93
COc1ccccc1/C=C1\SC(=S)N(CC(=O)Nc2nnc(C)s2)C1=O,0.05,2.8
# Continuation:
SMILES,KCNQ2 pot,KCNQ2 pot baseline
COc1ccc(OC)c(CC(=O)N2CCc3cc(OC)c(OC)cc3C2)c1,0.16,0.3
CCCOc1ccccc1N/C(N)=N/c1nc(C)cc(C)n1,1.2,0.07
Cc1ccnc2nc(C(=O)NCc3ccccc3)nn12,0.59,-0.03
COc1cc(NC(=O)c2cc(Br)cc(C)c2OC)ccc1NC(=O)C(C)C,0.54,-0.13
Cc1ccc(C(=O)Nc2cccnc2)cc1S(=O)(=O)N1CCCCCC1,0.41,-0.82
CSc1nc(NCC(C)C)nc(N2CCOCC2)n1,0.71,1.6
CCNC(=O)NCCNC(=O)c1cc(OCC(F)(F)F)ccc1OCC(F)(F)F,0.89,-0.27
C/C(N)=C(/C#N)C(=O)COc1ncnc2ccc(Br)cc12,1.1,-1.1
COc1ccccc1N1C(=O)C2C3C=CC(C3)C2C1=O (centres undefined),0.21,-1.7
CC1COc2ccccc2N1C(=O)c1ccc(Cl)nc1 (centres undefined),1.4,-0.92
C=CCN(c1ccccc1)S(=O)(=O)c1cccc(C(=O)Nc2nc3ccccc3[nH]2)c1,0.72,-0.14
C=C(C)Cn1c(=O)c2c(nc3n2CCCN3Cc2ccccc2)n(C)c1=O,0.69,0.48
O=C(Cn1nc(-c2ccccc2)nc1-c1ccccc1)N1CCOCC1,2.7,0.62
Cc1ccc(F)cc1NC(=O)c1ccc(NS(=O)(=O)c2ccc(Br)s2)cc1,1.1,-0.8
Cc1cccc(C(=O)OCC(=O)c2c(N)n(CC(C)C)c(=O)n(C)c2=O)c1[N+](=O)[O-],0.85,-1.9
O=C(NC1CCN(Cc2ccccc2)CC1)c1ccccc1F,0.19,0.53
Cc1oc(-c2ccc(Cl)cc2)nc1CN1CCC(C(=O)NCCCN2CCCC2=O)CC1,0.07,-0.62
O=C(NCCCN1CCCC1)C1CCN(C(=O)c2cc3sccc3n2Cc2ccc(F)cc2)CC1,0.53,-0.3
CN(C)CCCNS(=O)(=O)c1cc(Cl)ccc1Cl,0.62,-0.16
COc1ccc(C2C(C(C)=O)=C(O)C(=O)N2CCO)c(OC)c1 (centres undefined),1.1,-0.27
CC(C)C1CC(O)(C2(O)CCCCC2)ON1 (centres undefined),0.43,1.8
CC(=O)/C(C#N)=C1\NC(=O)C(Cc2cc(Cl)ccc2Cl)S1 (centres undefined),2.1,-0.34
Cc1cccc(CCNC(=O)c2cccc(NC3=NC4CS(=O)(=O)CC4S3)c2)c1 (centres undefined),0.09,0.11
O=C(NCCc1nnc2ccc(NCc3cccnc3)nn12)c1ccccc1F,0.29,0.18
Cc1ccc(CN=C(N)Nc2nc(C)cc(C)n2)cc1,0.89,0.53
# The list continues:
SMILES,KCNQ2 pot,KCNQ2 pot baseline
Cc1cc(NC(=O)CCN2C(=O)C3C4CCC(C4)C3C2=O)cc(C)c1Br (centres undefined),2.1,-1.6
O=C(NNS(=O)(=O)c1ccc(CCCl)cc1)C(O)(c1ccccc1)c1ccccc1,2,-1.6
Cc1sc2nc(C3CC3)nc(SCC(=O)NCc3ccco3)c2c1C,0.3,0.8
Cc1cc(C)cc(NC(=O)Nc2cnccn2)c1,0.01,0.58
CCS(=O)(=O)NC(C)C(c1cccs1)N1CCN(C)CC1 (centres undefined),0.65,2.4
CCc1ccc(N2CC(C(=O)N/N=C/c3cccc([N+](=O)[O-])c3)CC2=O)cc1 (centres undefined),0.67,-0.12
O=C(CCSc1ccc(Cl)cc1)c1ccco1,0.01,0.1
O=S(=O)(c1cnc[nH]1)N1CCCCCC1,0.78,0.92
COc1ccccc1C(=O)NCCC(=O)N(C)CC(=O)Nc1ccc(Cl)cc1,1.9,-2.1
C=CCNC(=S)NNC(=O)CCC(O)CCCCC (centres undefined),2.4,-0.23
O=S(=O)(NCC1CCCO1)c1ccc(Cl)c(C(F)(F)F)c1 (centres undefined),0.74,0.91
Cc1[nH]c(=S)c(C#N)c(C)c1C(=O)Nc1ccccc1,0.76,0.86

# An excerpt from above in order of length of the SMILES, lowest first.
SMILES,KCNQ2 pot,KCNQ2 pot baseline
O=C(CCSc1ccc(Cl)cc1)c1ccco1,0.01,0.1
CC(C)C1CC(O)(C2(O)CCCCC2)ON1 (centres undefined),0.43,1.8
Cc1cc(C)cc(NC(=O)Nc2cnccn2)c1,0.01,0.58
Cc1ccc(CN=C(N)Nc2nc(C)cc(C)n2)cc1,0.89,0.53
CCS(=O)(=O)NC(C)C(c1cccs1)N1CCN(C)CC1 (centres undefined),0.65,2.4
Cc1[nH]c(=S)c(C#N)c(C)c1C(=O)Nc1ccccc1,0.76,0.86
Cc1sc2nc(C3CC3)nc(SCC(=O)NCc3ccco3)c2c1C,0.3,0.8
O=C(NCCc1nnc2ccc(NCc3cccnc3)nn12)c1ccccc1F,0.29,0.18
CC(=O)/C(C#N)=C1\NC(=O)C(Cc2cc(Cl)ccc2Cl)S1 (centres undefined),2.1,-0.34
COc1ccccc1C(=O)NCCC(=O)N(C)CC(=O)Nc1ccc(Cl)cc1,1.9,-2.1
Cc1cc(NC(=O)CCN2C(=O)C3C4CCC(C4)C3C2=O)cc(C)c1Br (centres undefined),2.1,-1.6
Cc1cccc(CCNC(=O)c2cccc(NC3=NC4CS(=O)(=O)CC4S3)c2)c1 (centres undefined),0.09,0.11
O=C(NNS(=O)(=O)c1ccc(CCCl)cc1)C(O)(c1ccccc1)c1ccccc1,2,-1.6
CCc1ccc(N2CC(C(=O)N/N=C/c3cccc([N+](=O)[O-])c3)CC2=O)cc1 (centres undefined),0.67,-0.12

# The list is partial; count on the stated rates, not on these rows.
